High-throughput results (PubChem)
KCNQ2 block: KCNQ2 channel blockers in CHO-K1 cells – cell-based, FluxOR thallium flux, B-score, primary screen (AID 2156); O88943; 20 min; hits give low values; only compounds with negative scores are shown here; some inactives read as strong as hits; B-score at 10 µM; 1.1% of 310,000 active;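 active = fluorescence ratio B-score at most minus 3 library SDs, with starting brightness B-score within 2 library SDs, cut at about -5.5 in these data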
Target sequence (O88943 whole entry, looked up): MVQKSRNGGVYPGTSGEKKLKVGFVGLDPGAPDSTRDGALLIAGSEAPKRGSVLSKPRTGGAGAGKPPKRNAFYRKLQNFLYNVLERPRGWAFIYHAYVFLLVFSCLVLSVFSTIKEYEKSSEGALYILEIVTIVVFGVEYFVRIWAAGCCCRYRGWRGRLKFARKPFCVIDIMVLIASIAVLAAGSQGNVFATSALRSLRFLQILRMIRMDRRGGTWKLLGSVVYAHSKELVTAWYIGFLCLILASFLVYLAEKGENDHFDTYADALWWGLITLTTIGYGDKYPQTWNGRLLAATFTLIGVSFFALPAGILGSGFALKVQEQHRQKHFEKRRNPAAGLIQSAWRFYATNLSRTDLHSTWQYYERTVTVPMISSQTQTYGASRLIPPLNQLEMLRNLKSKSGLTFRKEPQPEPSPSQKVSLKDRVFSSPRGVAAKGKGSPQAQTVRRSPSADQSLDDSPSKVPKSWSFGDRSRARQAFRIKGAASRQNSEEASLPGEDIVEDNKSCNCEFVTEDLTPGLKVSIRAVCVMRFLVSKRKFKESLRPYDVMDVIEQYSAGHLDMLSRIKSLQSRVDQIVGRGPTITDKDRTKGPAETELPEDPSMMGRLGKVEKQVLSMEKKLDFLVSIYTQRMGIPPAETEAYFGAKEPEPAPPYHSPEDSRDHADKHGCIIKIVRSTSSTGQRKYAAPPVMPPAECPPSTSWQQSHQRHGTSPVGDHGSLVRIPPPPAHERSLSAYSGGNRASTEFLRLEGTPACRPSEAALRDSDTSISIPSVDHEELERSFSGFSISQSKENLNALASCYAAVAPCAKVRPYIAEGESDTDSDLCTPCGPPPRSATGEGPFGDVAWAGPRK
KCNQ2 block baseline: second read-out of KCNQ2 block, no call of its own (marks repeat the call); B-score; measured here: initial fluorescence intensity artifact check;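 brightness before thallium and not channel activity; 0 = typical well and far values either way flag optical interference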
* marks the source's active call; other numbers are inactive results; i = inactive. An excerpt (hit frequency here may not be typical).

KCNQ2 block	KCNQ2 block baseline	canonical_smiles
i	-0.53	Cn1c(CCC(=O)OCC(=O)NCc2ccccc2Cl)nc(=O)c2ccccc21
i	-0.76	C#Cc1ccc(CN2CCN(CCc3ccccc3)C(CCO)C2)cc1 (stereo unspecified)
i	-0.71	CS(=O)(=O)c1nc(-c2ccc(Br)cc2)n[nH]1
i	1.47	CCCN(CCC)CCCNC(=O)c1cc2c(=O)n(C)c3ccccc3c2n1C
i	-0.43	Cc1ccc(NC(=O)CSc2nnc(CNC(=O)c3cccs3)o2)c(C)c1
i	-0.69	CCOc1ccc(N2CC(C(=O)Nc3ccc(S(=O)(=O)Nc4nccs4)cc3)CC2=O)cc1 (stereo unspecified)
i	-0.48	C=CCn1c(SCC#N)nc2c(c1=O)C(C)(C)Cc1ccccc1-2
i	0.28	C/C(CC(=O)C(F)(F)F)=N\NC(=O)/C(C#N)=C/N(C)C
i	-0.5	Cc1cc(C)cc(N(CC(=O)NC2CCCC2)C(=O)CCC(=O)Nc2cc(C)on2)c1
i	-1.5	Cc1cccc(NC(=O)c2ccco2)c1C
i	2.82	Cc1ccc2cc(CCNC(=O)C(C)C)c(=O)[nH]c2c1C
i	-1.17	COCCCN1C(=O)c2ccc(C(=O)NCc3ccco3)cc2C1=O
i	2.38	O=C(NCC1CCCO1)c1ccc2c(=O)n(CC3CCCO3)c(=S)[nH]c2c1 (stereo unspecified)
i	-0.02	OCC1OC(n2nnc3ccccc32)C(O)C(O)C1O (stereo unspecified)
i	1.09	CC1CCCC(C)N1C(=O)c1cc(-c2ccco2)on1 (stereo unspecified)
i	0.02	CCOC(=O)CC(=O)CSc1ccc2nnc(-c3cccc(F)c3)n2n1
i	0.56	CC(C)n1c(SCC(=O)Nc2ccccc2)nc2c1c(=O)[nH]c(=O)n2C
i	0.36	Cc1cc(C)nc(N/N=C/C2=C(O)CC(c3ccc(F)cc3)CC2=O)n1 (stereo unspecified)
i	-0.8	Cc1ccc(-c2cc(N)n(-c3ccc(C)cc3)n2)cc1
i	-0.38	CC(C)C(C)NC(=O)CSc1nnc(-c2c[nH]c3ccccc23)o1 (stereo unspecified)

Some of the entries so far, in markdown.
| SMILES | KCNQ2 block | KCNQ2 block baseline |
| --- | --- | --- |
| C=CCn1c(SCC#N)nc2c(c1=O)C(C)(C)Cc1ccccc1-2 | i | -0.48 |
| C/C(CC(=O)C(F)(F)F)=N\NC(=O)/C(C#N)=C/N(C)C | i | 0.28 |
| Cc1cc(C)cc(N(CC(=O)NC2CCCC2)C(=O)CCC(=O)Nc2cc(C)on2)c1 | i | -0.5 |
| Cc1cccc(NC(=O)c2ccco2)c1C | i | -1.5 |
| Cc1ccc2cc(CCNC(=O)C(C)C)c(=O)[nH]c2c1C | i | 2.82 |
| COCCCN1C(=O)c2ccc(C(=O)NCc3ccco3)cc2C1=O | i | -1.17 |

(list continues)
KCNQ2 block	KCNQ2 block baseline	canonical_smiles
i	-2.15	O=C(Nc1ccc(Cl)cc1)NC1CCCCNC1=O (stereo unspecified)
-6.7*	0.53*	CCOC(=O)c1c(-c2ccccc2)oc2ccc(OCC(O)CNCCN(C)C)cc12 (stereo unspecified)
i	-1.26	CC(=O)N1CCN(C2=NC(=O)/C(=C/c3ccc(OS(=O)(=O)c4ccccc4)cc3)S2)CC1
i	-1.56	Cc1cccc(C(=O)Nc2cc(C)ccc2NC(=O)COc2ccccc2)c1
i	-0.32	O=C1CC(Cc2ccc(Cl)cc2)C(=O)N1c1ccccn1 (stereo unspecified)
i	-0.86	O=C(COC(=O)/C=C/c1ccc(C(F)(F)F)cc1)NCCC1=CCCCC1
i	1.67	CCn1c2ccccc2c2cc(NC(=O)COC(=O)c3ccccc3Br)ccc21
i	0.56	Cc1cccn2c(=O)c3cc(C(=O)NCCc4ccccc4)c(=N)n(CCCn4ccnc4)c3nc12
i	-1.81	COc1ccc(S(=O)(=O)N2CCC(C(=O)N[C@H](C(=O)NCc3ccncc3)C(C)C)CC2)cc1
i	-1.72	CCCn1cnnc1CNC(=O)C1CCC(=O)N(CCc2ccc(OC)cc2)C1 (stereo unspecified)
i	1	CC(=O)NCCc1nc2cc(NS(=O)(=O)c3ccccc3)ccc2n1C
i	0.58	Nc1nnc(-c2cccc([N+](=O)[O-])c2)s1
i	0.77	O=C(CN(Cc1cccs1)C(=O)CNS(=O)(=O)c1ccc(Cl)cc1)NCC1CCCO1 (stereo unspecified)
i	-1.69	Cc1cc(Br)ccc1NC(=O)c1ccco1
i	-1.07	Cn1c(CNc2ccc(Br)cc2)nc2ccccc21
i	0.52	COc1cccc2c(=O)n(CC(=O)N3CCCc4ccccc43)ccc12
i	-1.12	Cc1cc(NC(=O)c2ccccc2)n(C)n1
i	0.11	CCN1C(=O)C2(C(C(=O)c3cc4ccccc4o3)=C(O)C(=O)N2CCCN(C)C)c2ccccc21 (stereo unspecified)
i	0.87	CCOc1cc(/C=N/NC(=O)COc2ccccc2C)ccc1OC(=O)c1cccs1
i	1.63	Cc1c(S(=O)(=O)NCc2ccccc2)c(=O)n(C)c(=O)n1C
i	-1.87	CC1CCC(N2CCN(c3ccc([N+](=O)[O-])cc3)CC2)CC1 (stereo unspecified)
i	1.86	CC(c1nnc(SCC(=O)Nc2cccnc2Cl)n1Cc1ccccc1)N(C)C (stereo unspecified)
i	1.23	CN(C)C(CNC(=O)c1ccc2ccccc2c1)c1ccco1 (stereo unspecified)
i	1.62	O=C(Nc1cccc2ccccc12)N1CCN(Cc2ccc3c(c2)OCO3)CC1
i	2.73	O=C(NCc1ccccn1)C(=O)NCC1OCCCN1S(=O)(=O)c1cc(F)ccc1F (stereo unspecified)
i	2.92	O=C(C1=C[C@H](c2ccc(Br)cc2)C[C@H](OCCCCO)O1)N1CCOCC1
i	-0.33	O=C(CSc1cccc(C(F)(F)F)c1)Nc1ccc(Cl)cc1Cl
i	-0.62	COc1ccc(NC(=O)CSc2nnc(Cc3cccn3C)n2-c2ccc(C)cc2)cc1OC
i	-2.85	O=C(c1ccco1)c1nnn(Cc2ccccc2)c1-c1ccccc1
i	0.19	Nc1cc(Nc2ccccc2)c2nonc2c1[N+](=O)[O-]
i	-1.11	O=C(NCC1CCCN1S(=O)(=O)c1cccs1)C(=O)Nc1cccc(F)c1 (stereo unspecified)
i	0.07	COC(=O)c1c(N2C(=O)[C@H]3[C@@H](C2=O)[C@]2(C(=O)Nc4c(C)cc(C)cc42)N2CCC[C@@H]32)sc(C)c1C
i	1.08	CN1CCN(/N=C/c2cccc(Cl)c2Cl)CC1
i	-0.92	COc1ccc(Cn2c(SCC(=O)NCc3ccco3)nc3ccsc3c2=O)cc1
i	0.52	COC(=O)c1ccc(Cn2nc(C)c(Cl)c2C)o1
i	0.2	N=C1C(c2nc(-c3ccc(F)cc3)cs2)=C(O)CN1Cc1ccc(Cl)cc1
i	0.71	O=C(Nc1cccc(F)c1)c1ccc(-c2ccccc2Cl)o1
i	-0.57	Cn1ncc(N2CCN(C(=O)c3ccc(Cl)cc3)CC2)c(Cl)c1=O
i	-0.29	O=C(Nc1cc(Cl)ccc1Cl)c1cc(-c2ccco2)on1
i	-2.5	Cc1cc(NC(=O)CSc2cn(CC(=O)N(C(C)C)C(C)C)c3ccccc23)no1

Reformatted: entries from further up
> CC(C)n1c(SCC(=O)Nc2ccccc2)nc2c1c(=O)[nH]c(=O)n2C
  KCNQ2 block: i
  KCNQ2 block baseline: 0.56

> Cc1cc(C)nc(N/N=C/C2=C(O)CC(c3ccc(F)cc3)CC2=O)n1 (stereo unspecified)
  KCNQ2 block: i
  KCNQ2 block baseline: 0.36

(cont.)
KCNQ2 block	KCNQ2 block baseline	canonical_smiles
i	-0.02	Cc1cccc(NC(=S)NCc2ccc(F)cc2)c1C
i	-0.13	COc1ccc(NC(=O)c2cc3c(=O)n4ccccc4nc3n2C)cc1OC
i	0.39	COc1cc(C2SCC(=O)N2c2nnc(C34CC5CC(CC(C5)C3)C4)s2)cc(OC)c1OC (stereo unspecified)
i	0.9	O=C(Cc1cccc2ccccc12)NCCC1=CCCCC1
i	-0.24	O=C1/C(=C\c2ccc(C(F)(F)F)cc2)CSc2sccc21
i	-0.01	CCCSc1nnc(-c2cnn(-c3ccccc3)c2-n2cccc2)n1C
i	1.23	NS(=O)(=O)c1ccc(N2N=C(c3ccccc3)CC2c2cccc(F)c2)cc1 (stereo unspecified)
i	-0.11	O=C(COC(=O)/C=C/c1ccc(S(=O)(=O)N2CCc3ccccc32)cc1)NC1CCS(=O)(=O)C1 (stereo unspecified)
i	0.19	COc1ccc(Nc2cccccc2=O)cc1
i	0.5	CCC/C=N/NC(=O)c1ccccc1O
-7.03*	-2.11*	COc1ccc(CCNCC(O)Cn2c3ccccc3c3ccccc32)cc1OC (stereo unspecified)
i	0.91	Cc1ccc(-c2nc(CS(=O)(=O)CC(=O)NCCCN(Cc3ccccc3)C(C)C)c(C)o2)cc1
i	0.6	CCOC(=O)CSc1nncc2ccc(OC)c(OC)c12
i	0.54	CCCSc1nnc(Cc2cc(=O)[nH]c(=O)[nH]2)n1-c1cc(C)ccc1C
i	-1.64	Fc1ccc(CN2CCCCCCC2)cc1
i	-0.15	CCOC(=O)c1c(NC(=O)COC(=O)CCOc2ccccc2C)sc(C(=O)NC)c1C
i	-0.26	Cc1cccc2cc(C(c3nnnn3CC3CCCO3)N3CCOCC3)c(=O)[nH]c12 (stereo unspecified)
i	0.18	Oc1oc(-c2ccco2)nc1C=Nc1cccc(Cl)c1
i	0.94	S=C(NCCc1ccccn1)Nc1ccccc1
i	1.13	CCCCOC(=O)Nc1nccs1
i	2.64	CCCCn1c(SCC(=O)N2CCC(C)CC2)nc2cc(S(N)(=O)=O)ccc21
i	-1.96	CN(Cc1ccccc1)S(=O)(=O)c1ccc(Cl)nc1
i	-0.08	O=C1C2CC=C(Cl)CC2C(=O)N1CCc1c[nH]c2ccccc12 (stereo unspecified)
i	1.59	COC(=O)c1nnn(CC(=O)NC(=O)Nc2ccc(F)cc2)c1C(=O)OC
i	1.23	Cc1ccccc1N(CC(=O)NC(C)(C)C)C(=O)c1ccc(-c2ccccc2)[nH]1
i	-1.34	CCN(C(=O)CSc1nnnn1C)c1c(N)n(Cc2ccccc2)c(=O)[nH]c1=O
i	0.93	Cc1ccc(CNS(=O)(=O)CCNC(=O)c2ccc3c(c2)OCO3)cc1
i	0.08	c1cnc2nc(-c3ccc4c(c3)OCO4)cn2c1
i	1.56	CC(C)Oc1ccccc1C1NC(=O)CCC1[N+](=O)[O-] (stereo unspecified)
i	-0.15	O=C1C=C(NCc2ccc(Cl)cc2)CCC1
i	3.49	Cc1cc(/C=N/O)c(C)n1-c1cccc(Cl)c1
i	-0.94	CCN(CC)N=Nc1[nH]nc2nc(C)cc(C)c12
i	0.87	Cc1[nH]c2ccccc2c1C(=O)CSC(=S)N1CCOCC1
i	0.7	CCC(C)NC(=O)COC(=O)c1cc([N+](=O)[O-])ccc1Sc1nc(C)cs1 (stereo unspecified)
i	-0.78	Nc1c(C(=O)N2CCOCC2)sc2nc3c(cc12)CCC3
i	-0.15	S=C(NCc1ccccn1)Nc1ccc(Cl)cc1
i	-0.22	Cc1ccc2sc(C)[n+](CCCS(=O)(=O)[O-])c2c1
i	-1.28	CCN(c1ccccc1)S(=O)(=O)c1ccc(Oc2ccc([N+](=O)[O-])cc2)nc1
i	-0.51	CCN1CCN(CCCNC(=O)CCC(=O)N2CCOc3ccc(Cl)cc32)CC1
i	-2.3	CC(=O)Nc1ccc(S(=O)(=O)N2CCN(c3nc(C)cc(C)n3)CC2)cc1
i	2	c1ccc(N2CCN(c3cnccn3)CC2)nc1
i	1.26	Cn1ncc(Br)c1C(=O)NC1C2CC3CC(C2)CC1C3 (stereo unspecified)
i	1.03	CCCC(C)NC(=O)CSc1nc(-c2ccccc2)cn1N (stereo unspecified)
i	0.19	O=C(NC1CC1)c1ccc2c3c(cccc13)CC2
i	2.28	CCC1Oc2ccccc2N(CC(=O)Nc2ccc(OC)cc2OC)C1=O (stereo unspecified)
i	-0.02	COc1ccccc1CCNC(=O)CSc1nnc2ccc(-c3ccncc3)nn12
i	0.42	Cc1ccc(S(=O)(=O)N2CCN(c3ccccc3)CC2)cc1C(=O)NC1CCCCC1
i	-0.06	O=C(CSc1ncn[nH]1)c1cccc([N+](=O)[O-])c1
i	-0.43	COc1ccc(Cl)cc1C(=O)NCC(C)C
i	2.5	C#CCSc1nnc(CSc2nc3ccccc3s2)n1-c1ccccc1
i	-0.6	CCCCCc1cc(=O)oc2c(C(CCN3CCCCC3)c3ccc4c(c3)OCO4)c(OC)cc(OC)c12 (stereo unspecified)
i	0.51	Cc1cc(C)n(CC(O)CN(c2ccccc2)S(=O)(=O)c2ccc3ccccc3c2)n1 (stereo unspecified)
i	-0.75	CC1CCN(CCC(=O)Nc2ccc(F)c(F)c2)CC1
i	-0.36	Cc1cc(C(=O)NCc2ccccc2Br)no1
i	-0.73	N#CC1=C(N)S[C@@H](C(=O)c2ccc(F)cc2)[C@@H]1c1cccs1
i	0.52	O=S(=O)(c1ccc2ccccc2c1)N1CCN(C(=S)Nc2ccc(F)cc2)CC1
i	0.95	COc1ccc(C(=O)N2CC(=O)Nc3ccc(F)cc3C2c2ccccc2)cc1 (stereo unspecified)
i	-0.13	COc1ccc(-c2cnc3c(-c4ccc(F)cc4)cnn3c2N)cc1
i	-0.05	Cc1cc(NC2CCCCC2)nc2ccccc12
i	0.19	O=S1(=O)N=C2CCCCCN2C(c2ccc(Br)cc2)N1 (stereo unspecified)

Complete entries from above. Order of screens: KCNQ2 block | KCNQ2 block baseline
Cc1cc(C)n(CC(O)CN(c2ccccc2)S(=O)(=O)c2ccc3ccccc3c2)n1 (stereo unspecified) in the list: i | 0.51
N#CC1=C(N)S[C@@H](C(=O)c2ccc(F)cc2)[C@@H]1c1cccs1 in the list: i | -0.73
COc1ccc(-c2cnc3c(-c4ccc(F)cc4)cnn3c2N)cc1 in the list: i | -0.13
Cc1cc(NC2CCCCC2)nc2ccccc12 in the list: i | -0.05

Compounds above that contain a cyano group, in the order listed:
KCNQ2 block	KCNQ2 block baseline	canonical_smiles
i	-0.48	C=CCn1c(SCC#N)nc2c(c1=O)C(C)(C)Cc1ccccc1-2
i	0.28	C/C(CC(=O)C(F)(F)F)=N\NC(=O)/C(C#N)=C/N(C)C
i	-0.73	N#CC1=C(N)S[C@@H](C(=O)c2ccc(F)cc2)[C@@H]1c1cccs1
